High-throughput results from PubChem.
Marburg entry inh: inhibitors of Marburg virus binding or cell entry; Marburg virus pseudotyped entry inhibition, cell reporter; control for the full effect not named in the record; about a third of the inactives were read at about 46 µM; Potency, µM (titrated, usually from 37.8 µM), for inactives: at the highest dose activity change, negative = inhibition, usual class: inhibitors; 300,000 compounds, 1.8% hits; AID 540276; active = well fitted inhibition curve with a large enough effect; inconclusive = small, poorly fitted or top-dose-only effect, or effect the other way; inactive = flat fitted curve, though single readings scatter; tested in HEK293 cells; about a fifth of its hits are not listed in these tables; note: % is set by controls: 0 for no effect and ±100 for the full control effect; luciferase read-out
2A StopGo: lowers the luciferase signal of an FMDV 2A StopGo reporter; 410,000 compounds, 1.2% hits; human cells with a luciferase reporter of 2A StopGo recoding; control for the full effect not named in the record; Potency, µM (top dose mostly 57.9 µM), inactives show top-dose signal change, negative = less light; active = well fitted falling curve with a large enough effect; inconclusive = small, poorly fitted or top-dose-only effect; inactive = no such curve, though single readings can be large or run the other way; tested in HEK293T cells; note: % is set by controls: 0 for no effect and ±100 for the full control effect; nearly all actives have a fitted effect of over 45% in size; luciferase light after 4 h
Lassa entry inh: inhibitors of Lassa virus binding or cell entry | Lassa virus pseudotype entry inhibition, cell reporter; control for the full effect not named in the record | Potency, µM (doses to about 37.9 µM), for the others: top-dose activity change, negative = inhibition, most hits filed as inhibitors | 300,000 compounds, 1.2% hits; active means well fitted inhibition curve with a large enough effect; inconclusive means small, poorly fitted or top-dose-only effect, or effect the other way; inactive means flat fitted curve, though single readings scatter; tested in HEK293 cells; note: % is set by controls: 0 for no effect and ±100 for the full control effect; nearly all actives have a fitted effect of over 50% in size; luciferase read-out
SARS PLP yeast: SARS-CoV PLP inhibition in yeast | 330,000 compounds, 0.19% hits | AID 485353 | S. cerevisiae expressing SARS-CoV PLpro, growth rescue; control for the full effect not named in the record | Potency, µM (top dose mostly 32.9 µM), inactives show at the top dose activity, positive = growth rescue; active means well fitted rising curve with a large enough effect; inconclusive means small, poorly fitted or top-dose-only effect; inactive means no such curve, though single readings can be large or run the other way; note: 0% is about no effect; nearly all actives have a fitted effect of over 55% in size; growth read by luminescence after 48 h
NS1 inh: influenza NS1 inhibition; S. cerevisiae slowed by influenza A NS1, growth recovery by OD600; Potency, µM (series often up to 46.1 µM), for inactives: top-dose activity, positive = more growth; 270,000 compounds, 0.4% hits; active means well fitted rising curve with a large enough effect; inconclusive means small, poorly fitted or top-dose-only effect; inactive means no such curve, though single readings can be large or run the other way; note: nearly all actives have a fitted effect of over 50% in size
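In this qHTS, NS1 from influenza A is expressed in budding yeast, where it slows growth. Cells are switched from glucose to 2% galactose medium (pH 6.0, -URA), treated with compound, and growth recovery is read at OD600.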
Cruzain inh Det: blocks cruzain activity in presence of Triton detergent. purified cruzain, Z-FR-AMC fluorescence, 0.01% Triton. Potency, µM, for the others: max response, negative = inhibition, most hits filed as inhibitors. P25779. 200,000 compounds, 0.43% hits;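 note: plate controls were neutral wells for no effect and buffer without enzyme for full effect; nearly all actives have a fitted effect of over 40% in size; top concentration of the series not given in the record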
Target sequence (P25779 123-467 limits assumed): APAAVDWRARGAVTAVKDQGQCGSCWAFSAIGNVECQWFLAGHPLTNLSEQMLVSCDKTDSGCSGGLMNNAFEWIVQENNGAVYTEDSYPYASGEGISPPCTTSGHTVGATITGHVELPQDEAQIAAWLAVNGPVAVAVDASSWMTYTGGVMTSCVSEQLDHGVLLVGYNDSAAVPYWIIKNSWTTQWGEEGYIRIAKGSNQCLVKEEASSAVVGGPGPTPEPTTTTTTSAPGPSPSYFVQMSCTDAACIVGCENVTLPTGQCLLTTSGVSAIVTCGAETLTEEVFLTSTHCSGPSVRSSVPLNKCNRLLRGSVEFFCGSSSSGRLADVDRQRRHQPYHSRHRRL
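Cruzain (1.5 nM) preincubated 15 min at RT with compound in 100 mM sodium acetate pH 5.5, 5 mM DTT, 0.01% Triton X-100. Reaction started with 2 uM Z-FR-AMC; AMC fluorescence (ex 360/em 450 nm) change over 60 s gave rate.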
RE007 growth inh: less growth of the S. pombe RE007 Vpr strain; Potency, µM (series often up to 92.2 µM), without a hit: at the highest dose activity change, negative = less growth; 360,000 compounds, 0.21% hits; S. pombe RE007 Vpr strain, BacTiter-Glo ATP luminescence, 24 h; control for the full effect not named in the record; active = well fitted falling curve with a large enough effect; inconclusive = small, poorly fitted or top-dose-only effect; inactive = no such curve, though single readings can be large or run the other way;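 note: % is set by controls: 0 for no effect and ±100 for the full control effect; nearly all actives have a fitted effect of over 50% in size; the assay follows cell death caused by Vpr and the record does not say whether a fall means rescue or toxicity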
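Fission yeast RE007 carrying one integrated HIV-1 vpr copy, seeded at OD 0.01 in PMG+AL medium with 23 nL pinned compound. Grown 24 h at 30 degrees; viability read by BacTiter-Glo luminescence after 5 min.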
Cruzain noTriton: inhibitors of Trypanosoma cruzi cruzain without detergent; Potency, µM, without a hit: max response, negative = inhibition, actives largely listed as inhibitors; P25779; 200,000 compounds, 2.3% hits; purified cruzain, Z-FR-AMC fluorescence, no detergent;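 note: plate controls were enzyme without inhibitor for no effect and buffer without enzyme for full effect; nearly all actives have a fitted effect of over 40% in size; top concentration of the series not given in the record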
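Purified cruzain at 1.5 nM, pre-incubated 15 min with compound at room temperature in 100 mM sodium acetate pH 5.5, 5 mM DTT, 0.00005% Triton X-100. Reaction started with 2 uM Z-FR-AMC; AMC fluorescence increase over 60 s gives rate.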
* = called active by the depositor; ? = inconclusive; nt = not tested or not shown; & = joins results of further samples; [ ] = remark or other dose. Unless noted, calls come from the whole dose curve; as a rule, active = well fitted curve in the direction sought with a large enough effect; inconclusive = small, poorly fitted or top-dose-only effect, or another doubt; inactive = no such curve, though single readings can be large; an effect the other way counts as inactive or inconclusive. Potency is the fitted concentration of half-maximal effect.

Values in the order: Marburg entry inh	2A StopGo	Lassa entry inh	SARS PLP yeast	NS1 inh	Cruzain inh Det	RE007 growth inh	Cruzain noTriton
COc1cccc(CNC(=O)c2cc3n(n2)CCCN(Cc2ccc(C)cc2)C3=O)c1OC
  nt	-29%	-13%[46.1 µM]	nt	nt	-0.7%	nt	8%
CCOc1ccc(-c2cc3c(=O)n(CC(=O)NCc4ccccc4)ccn3n2)cc1
  nt	35%[activator]	3%[46.1 µM]	nt	nt	-1.0%	nt	-1%
COC(=O)c1ccccc1OC(=O)c1cc2ccccc2oc1=O
  5%[46.1 µM]	17%	19%[46.1 µM]	1%	-2%	nt	13%	nt
Cc1ccc(-c2nc3ncccc3o2)cc1NC(=O)c1cccs1
  -3%	-7%	11%	5%	-2%	nt	-1%	nt
Cc1cc(C(=O)CN2C(=O)NC(c3ccccc3)(c3ccccc3)C2=O)c(C)n1Cc1ccco1
  ?	44%[activator]	-1%	0%	?	-2.1%	7%	?
CCC(C(=O)OCC(=O)Nc1ccc(C(=O)Nc2ccc(OC)cc2)cc1)c1ccccc1 (stereo not given)
  ?	5%	2%	0%	7%	-4.2%	14%	3%
COc1ccc(CC(=O)NCCc2csc(-c3ccc(C(F)(F)F)cc3)n2)cc1
  nt	-39%	-1%[46.1 µM]	nt	nt	-0.9%	nt	21%
COc1ccc(O)c(C(=O)c2cnn(-c3ccccn3)c2)c1
  -7%[46.1 µM]	33%[activator]	?	-10%	1%	nt	-23%	nt
Cc1ccc(C)c(NC(=O)CCC(=O)N/N=C/c2ccc[nH]2)c1
  ?	-9%	18µM*	0%	15%	0.5%	-1%	-8%
CCOC(=O)C1=C(C)N(C)C(=O)NC1c1c(OC)ccc2ccccc12 (stereo not given)
  ?	-8%	?	5%	15%	nt	3%	nt
CN(C)CC1CCCCC1OC(=O)c1ccc(Cl)cc1Cl (stereo not given)
  nt	-13%	nt	-25%	-11%	-0.1%	-4%	-9%
CCN1C(=O)C(Cc2nc3ccccc3c(=O)n2-c2cccc(C)c2)c2ccccc21 (stereo not given)
  -1%[46.1 µM]	16%	-20%[46.1 µM]	nt	nt	-7.0%	nt	2%
CC(C)CSc1nc2ccccc2n1CC(=O)O
  13%[46.1 µM]	-17%	?	-1%	3%	nt	3%	nt
COc1ccc(C(C)=O)cc1COC(=O)c1cc2ccccc2cc1O
  -4%[46.1 µM]	-19%	?	2%	8%	nt	-6%	nt
C[C@H](NC(=O)Nc1ccccc1F)C(=O)O
  13%	-21%	12%	0%	-1%	1.0%	-7%	-6%
CCOC(=O)/C(C#N)=C1/C=CN(c2ccccc2)C=N1
  ?	52%[activator]	9%	?	-8%	-7.9%	-3%	-7%
CCc1n[nH]c2c1/C(=N\O)CC(C)(C)C2
  -1%	-20%	6%	2%	4%	14%	12%	0%
CCCCCn1c(=O)c(C(=O)OCC)c(Cl)c2ccccc21
  0%[14.2 µM]	-15%	-11%	-2%	0%	nt	-10%	nt
c1ccc(CN2CCN(c3nc(-c4ccccc4)nc4ccccc34)CC2)cc1
  ?	?	-7%	7%	3%	0.4%	0%	9%
CCNC(=S)N(Cc1ccccc1)Cc1nc2ccccc2c(=O)[nH]1
  0%	-5%	-1%	1%	25%	-4.6%	-1%	-9%
N#CC1=C(N)Oc2c(oc(CO)cc2=O)C12C(=O)Nc1ccc(Cl)cc12 (stereo not given)
  -2%	21%	-3%	1%	-3%	4.3%	7%	11%
CC(C)(C)c1nc(NCCO)c2nnn(Cc3ccccc3)c2n1
  ?	-28%	?	-6%	-26%	nt	11%	nt
Cc1ccccc1N1CCN(C(=O)c2ccccc2NC(=O)/C=C\C(=O)O)CC1
  23%[46.1 µM]	0%	6%	-9%	-4%	3.9%	-12%	-3%
NC(=O)c1ccccc1NC(=O)C(c1ccccc1)c1ccccc1
  ?	-3%	-1%[46.1 µM]	nt	nt	nt	10%	nt
O=C(Nc1ccc(Cl)c(Cl)c1)N1CC=CCC1
  -6%&-6%	18%	-17%	-13%	-128%	-2.2%	-8%	-7%
Cc1cc(C)cc(NC(=O)C2CCCN(c3nccc(C)n3)C2)c1 (stereo not given)
  -3%	0%	2%	-7%	-40%	0.7%	2%	?
Nc1ccccc1SC/C=C/CSc1ccccc1N
  24%	0%	-22%	-4%	-31%	nt	15%	nt
CC(C)Sc1nc(N2CCCC2)c2c(c1C#N)CC(C)(C)OC2
  ?	-24%	?	-16%	-4%[9.22 µM]	-8.5%	-13%	5%
S=C(NN=C1CCN(Cc2ccccc2)CC1)NC1CCCCC1
  4%[46.1 µM]	18%	-6%	21%	-1%	nt	-4%	nt
Cc1cc(C)cc(NC(=O)NNC(=O)c2cc3occc3[nH]2)c1
  nt	-2%	nt	4%	-5%	nt	1%	nt
CCN(N=Nc1cccc([N+](=O)[O-])c1)c1cccc([N+](=O)[O-])c1
  ?	-6%	-1%	1%	-3%	2.9%	-14%	-9%
O=C(O)CCN=Cc1c(O)c2ccccc2oc1=O
  ?	45%[activator]	?	0%	nt	nt	18%	nt
O=C(NCCc1ccccc1)C(=O)NCC1OCCCN1S(=O)(=O)c1cc(F)ccc1F (stereo not given)
  2%	-12%	?	11%	5%	nt	8%	nt
Cc1ccc(C2=CC(C)(c3ccc(C)cc3)Nc3nc(C(F)(F)F)nn32)cc1 (stereo not given)
  ?	-22%	-24%	-8%	1%	-8.2%	18%	-6%
COc1ccc(NC(=O)CSc2[nH]c(=O)cc(C)c2C#N)cc1OC
  -20%	nt	17%	3%	0%	0.3%	-11%	-18%
Cc1cccc(Oc2ncnc(N)c2[N+](=O)[O-])c1C
  -7%	-21%	8%	?	6%	0.5%	-1%	1%
CCOC(=O)C1=C(CSc2nc(-c3ccncc3)ccc2C#N)OC(N)=C(C#N)C1c1ccc(OC)cc1 (stereo not given)
  -9%	-16%	0%	-6%	11%	-4.5%	-1%	-27%
COc1cc(NC(=O)c2cc(C(C)C)on2)cc(OC)c1OC
  nt	-13%	nt	-7%	-21%	4.8%	-2%	-3%
CCn1nc(C)c(CN2CCN(Cc3ccsc3)C(CCO)C2)c1C (stereo not given)
  -3%[46.1 µM]	2%	-15%[46.1 µM]	0%	3%	nt	2%	nt
Cc1nc(N)sc1-c1csc(Nc2ncccn2)n1
  ?	0%	3%	-1%	nt	nt	15%	nt
CC1C2CC(C/C2=N/NC(=O)c2cccs2)C1(C)C (stereo not given)
  0%	3%	1%	-1%	nt	nt	-2%	nt
O=C(/C=C/Nc1cccc([N+](=O)[O-])c1)c1cccs1
  -4%	-17%	-2%	-14%	-60%	-13%	-3%[3.69 µM]	-19%
O=C(Nc1cccc(C(=O)OCc2cc(=O)n3ccsc3n2)c1)c1ccc(F)cc1
  nt	6%	?	nt	nt	2.2%	nt	18%
N/C(=N\OC(=O)Cc1cccc2ccccc12)c1ccccn1
  ?	34%[activator]	3%	3%	-124%	1.1%	4%	0%
COc1ccccc1NC(=O)Cn1c(=O)n(CCc2c[nH]c3ccccc23)c(=O)c2cccnc21
  35%	-5%	2%	-2%	11µM*	-3.2%	11%	20µM*
O=C(/C=C/c1ccco1)NC1CCCC1
  19%[46.1 µM]	8%	-24%	1%	-1%	nt	-8%	nt
Cc1ccccc1C1=N/C(=C/c2cccnc2)C(=O)O1
  14%[46.1 µM]	5%	0%	1%	nt	nt	-1%	nt
CCn1nc(C(=O)OCC(=O)N(CCC#N)c2ccccc2)c2ccccc2c1=O
  12%	-24%	1%	1%	nt	nt	-29%	nt
COc1ccccc1/C=N/NC(=O)c1ccccc1NS(=O)(=O)c1ccc(C)cc1
  ?	-24%	6%	0%	23%	-8.4%	nt	-1%
CS(=O)(=O)N1CCN(c2ccc(NC(=S)NC(=O)c3ccc4c(c3)OCO4)cc2)CC1
  4%[46.1 µM]	-9%	4%[46.1 µM]	-3%	5%	nt	66%	nt
C=CCSc1nnc(Cc2cc(=O)[nH]c(=O)[nH]2)n1-c1cc(C)ccc1C
  25%	-23%	17%	5%	7%	1.5%	8%	2%
CN(C)C(=O)CN1c2cccc3cccc(c23)S1(=O)=O
  nt	-17%	nt	15%	3%	nt	-2%	nt
COC(=O)c1ccc(/C=N/NC(=O)c2cccc(F)c2)cc1
  ?	22%	?	-10%	6%	-0.1%	-9%	-15%
O=C(Nc1ccccc1N1CCOCC1)C1CCN(S(=O)(=O)c2ccc(Cl)cc2)CC1
  nt	-22%	nt	1%	-8%	nt	13%	nt
COc1cc(NC(=O)CN2C3CCC2CC(O)(c2cccnc2)C3)cc(OC)c1 (stereo not given)
  ?	-4%	-7%	0%	9%	2.0%	7%	1%
CCN(CC)C(=S)SCC(=O)Nc1cccc(C(F)(F)F)c1
  -21%	0%	-20%	nt	nt	nt	3%	nt
N#CCCN(C(=O)CSc1nc2nc(-c3cccs3)cc(C(F)(F)F)c2c(=O)[nH]1)c1ccccc1
  -3%[46.1 µM]	-23%	?	-2%	1%	nt	-15%	nt
CCOC(=O)c1nc(C)n(-c2ccc(Cl)cc2Cl)n1
  -16%	-1%	8%	1%	4%	0.4%	12%	-6%
O=C(COc1ccc(F)cc1)Nc1nccs1
  nt	33%[activator]	nt	2%	-100%	-1.8%	2%	-9%
CC(C)N(C(=O)CSc1n[nH]c(=O)n1CCc1ccccc1)C(C)C
  3%[46.1 µM]	-16%	-1%	0%	6%	nt	-10%	nt
